Screening results as filed in PubChem BioAssay.
Calb FLC: C. albicans growth modulation with fluconazole | C. albicans CaCi-2 (fluconazole-resistant clinical isolate) + fluconazole, Alamar Blue growth, 48 h | growth inhibition, % (test concentration not listed) | actives 0.57% (n = 300,000);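 active = most replicates above 75%; inconclusive = exactly half above 75%; inactive = most below 75%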;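 note: all wells also contain fluconazole at 8 µg/ml as a sub-toxic cotreatment; 0% = median of DMSO wells and 100% = median of geldanamycin control wells; wells of about 8 µL received 7.5 nL stock; the first replicate is given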
LANA-H2B inh: blocks KSHV LANA binding to histone H2A/H2B; cell-free LANA-H2A/H2B peptide, fluorescence polarization; inhibition, % (no concentration beside the values); actives 0.6% (n = 320,000); Q9QR71; AID 2629; in the data active = inhibition mostly above about 10%, no sharp cut-off; inactive = mostly below about 6.7%;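 note: stock transfer was 7.5 nL into about 10 µL; 0% = median of vehicle wells and 100% = median of positive control wells; one replicate is shown; the record names a cut of 25% in any replicate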
RanGTP-Imp inh: disruptors of Ran-importin-beta complex formation – biochemical, FRET, CFP-Ran, YFP-importin-beta, homogeneous, primary screen. inhibition, % (concentration not given with the values). cell-free CFP-Ran/YFP-importin-beta FRET ratio. AID 2216. actives 1.1% (n = 300,000);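 active = most replicates above 15%; inconclusive = exactly half above 15%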;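 note: 0% = DMSO wells and 100% = Ran loaded with GDP instead of GTP; wells of about 40 µL received 100 nL stock; the first replicate is given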
ALR H2O2 inh: blocks human ALR sulfhydryl oxidase activity | P55789 | purified ALR, DTT oxidation, H2O2 HRP-luminol luminescence | inhibition, % (no concentration beside the values) | actives 3.8% (n = 290,000);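 active = mean and each replicate at 75% or more; inconclusive = only one of the two met; inactive = neither met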;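 note: stock transfer was 7.5 nL into about 7.5 µL; 0% = neutral wells and 100% = wells with inactivated enzyme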
Target sequence (P55789 whole entry, looked up): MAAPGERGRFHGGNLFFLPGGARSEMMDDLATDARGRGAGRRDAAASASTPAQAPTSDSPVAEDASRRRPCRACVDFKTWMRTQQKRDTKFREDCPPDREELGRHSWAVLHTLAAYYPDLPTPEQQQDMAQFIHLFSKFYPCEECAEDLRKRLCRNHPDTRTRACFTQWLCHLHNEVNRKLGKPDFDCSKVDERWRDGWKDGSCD
Beta2AR agonist: activates human beta-2 adrenergic receptor causing internalization; P07550; Am2.2-beta2AR cells, FAP receptor internalization, flow cytometry; reference of the scale not given here; response, % (no concentration beside the values); actives 0.43% (n = 340,000); AID 504454;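 active = response above a set limit, near 3 SD of response in nonfluorescent compounds, cut at about 42% in these data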;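 note: stock transfer was 100 nL into about 11 µL; a reference agonist was the positive control; negative values mostly stem from fluorescent compounds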
Target sequence (P07550 whole entry, looked up): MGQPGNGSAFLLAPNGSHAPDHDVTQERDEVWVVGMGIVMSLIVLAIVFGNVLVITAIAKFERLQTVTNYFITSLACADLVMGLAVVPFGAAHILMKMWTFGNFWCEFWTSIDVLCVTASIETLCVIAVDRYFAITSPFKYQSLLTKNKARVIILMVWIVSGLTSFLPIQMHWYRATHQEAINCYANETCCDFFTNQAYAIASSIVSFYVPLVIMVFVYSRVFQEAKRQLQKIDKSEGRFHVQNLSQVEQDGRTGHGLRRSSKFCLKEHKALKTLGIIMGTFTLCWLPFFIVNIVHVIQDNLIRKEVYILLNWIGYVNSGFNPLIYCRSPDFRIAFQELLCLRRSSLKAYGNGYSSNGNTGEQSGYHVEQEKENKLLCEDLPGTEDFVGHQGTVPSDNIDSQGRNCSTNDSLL
Vif TR-FRET: HIV-1 Vif–A3G interaction blockers – biochemical, TR-FRET, GST-Vif 1-94, biotin-A3G peptide, dose response retest, primary screen (AID 1117319). actives 0.57% (n = 260,000). TR-FRET GST-Vif / biotin-A3G peptide binding; higher % means a stronger effect; test concentration not given here; strong numbers were not always called active. inhibition, %; hits with a dose series show IC50 in µM;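 active = above the screen mean plus three standard deviations and confirmed in dose response; inconclusive = results disagree or hit not tested in dose response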;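 note: Vif residues 1-94 fused to GST binding biotinylated APOBEC3G peptide 110-148; 0% = full assay without inhibitor and 100% = GST in place of GST-Vif; retest series ran down from 100 µM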
HNF4A DNA FP: change in binding of human HNF4 alpha to DNA. P41235. HNF4a-FITC DNA binding, fluorescence polarization, 1 h. activity change, % at 10 µM. actives 0.3% (n = 360,000). AID 1224865; in the data active = activity change above about 30%, passing the limit was not always enough;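 note: controls were the assay level and a saturating level of protein; the project sought stronger binding though the title names inhibitors; some compounds called inactive have numbers as strong as hits; positive values seem to mean higher polarization but the record does not say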
Target sequence (P41235 whole entry, looked up): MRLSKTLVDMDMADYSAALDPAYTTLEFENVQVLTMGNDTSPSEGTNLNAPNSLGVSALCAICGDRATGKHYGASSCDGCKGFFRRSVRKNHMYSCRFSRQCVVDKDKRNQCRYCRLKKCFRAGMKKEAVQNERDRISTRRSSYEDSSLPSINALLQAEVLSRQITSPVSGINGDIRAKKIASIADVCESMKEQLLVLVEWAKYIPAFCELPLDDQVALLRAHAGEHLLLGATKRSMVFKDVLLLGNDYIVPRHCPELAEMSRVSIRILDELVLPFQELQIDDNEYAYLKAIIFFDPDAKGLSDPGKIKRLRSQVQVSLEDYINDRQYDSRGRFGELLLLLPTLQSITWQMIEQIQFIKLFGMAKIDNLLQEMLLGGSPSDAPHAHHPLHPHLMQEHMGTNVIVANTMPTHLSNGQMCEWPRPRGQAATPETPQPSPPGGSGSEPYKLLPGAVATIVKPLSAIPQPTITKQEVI
* marks the source's active call; other numbers are inactive results; ? = inconclusive; . = not tested or not shown; & = joins results of further samples.

SMILES	Calb FLC	LANA-H2B inh	RanGTP-Imp inh	ALR H2O2 inh	Beta2AR agonist	Vif TR-FRET	HNF4A DNA FP
COc1cc(/C=C2/NC(=O)N(Cc3ccccc3F)C2=O)ccc1Oc1ccc([N+](=O)[O-])cn1	-6	3.0	-1.4	.	3	?	2.8
Cn1cnc(C(=O)NC2CCN(C(=O)OC(C)(C)C)CC2)c1C(=O)NC1CCN(C(=O)OC(C)(C)C)CC1	.	-0.3	.	-3	-5	.	-2.8
CCCC(=O)Nc1cccc(Oc2ccc3c(c2)C(=O)NC3=O)c1	-11	6.3	6.4	.	-4	.	-6.0
CC(C)N(C(=O)Cn1cc(S(=O)(=O)CC(=O)NC2CCCCC2)c2ccccc21)C(C)C	-1	-2.4	-2.7	-9	-6	9%	2.0
CCOc1ccc(CNc2nc3ccccc3n2C)cc1	-8	-4.3	7.5	2	4	5%	-0.8
N#Cc1ccc(COC(=O)c2cc(=O)c3ccccc3o2)cc1	-16	-0.7	.	2	6	8%	0.6
CCC1CCC/C1=N\NC(=O)c1ccoc1C (stereo not given)	-22	-4.7	.	-6	-6	-3%	-0.2
CCCc1nc2ccccc2c(=O)n1/N=C/c1ccc(O)cc1O	9	7.9	4.4	4	-6	-4%	-2.3
O=C(OCc1ccc(Cl)cc1)c1cnccn1	-4	-1.0	0.3	-10	2	76%	0.4
COc1ccc(-c2n[nH]c(=S)n2Cc2ccccc2)cc1	19	0.4	?	10	4	.	-1.4
COc1ccc(/C=N/N2CCN(c3ccccc3)CC2)cc1Br	-4	-1.1	0.3	-3	-3	20%	1.1
CCCn1c(=O)c2[nH]c(-c3ccc(OCC(=O)Nc4ccc(C#N)cc4)cc3)nc2n(CCC)c1=O	.	-0.3	.	-10	2	.	2.5
CCCCN(C(=O)c1ccc(Cl)c(S(=O)(=O)N2CCOCC2)c1)c1c(N)n(CCC)c(=O)[nH]c1=O	-7	2.8	1.9	.	-8	.	-0.4
Cc1cc(C(=O)NCCc2ccc(Cl)cc2)n(-c2ccccc2)n1	-6	-3.0	-3.3	-1	6	-18%	-0.4
O=C(Nc1ccc(O)cc1)c1ccc2c(c1)C(=O)N(Cc1ccccc1)C2=O	-6	-2.3	3.8	31	8	.	2.6
COc1ccc(C(CNC(=O)c2cccnc2SC)N2CCOCC2)cc1 (stereo not given)	-22	2.9	2.2	10	-1	3%	-2.6
CCC(=O)Nc1ccc(NC(=S)Nc2ccccc2)cc1	-35	2.8	-3.5	-26	1	21%	2.9
CCn1cc(C(=O)N2CC(C)CC(C)C2)c(=O)c2cc(S(=O)(=O)N3CCOCC3)ccc21 (stereo not given)	-4	-0.7	-2.1	4	-9	-9%&-2%	6.5
C/C(=N\NC(=O)c1ccccc1O)c1ccc(NC(=O)Cc2ccccc2)cc1	-7	0.5	-4.3	-5	-1	.	-7.5
C/C(=N\NC(=O)c1cc(-c2ccccc2C)nc2ccccc12)c1cccnc1	-7	1.7	0.1	15	-4	2%	-1.4
CC(=O)c1c(C)oc2ccc(N(C(C)=O)S(=O)(=O)c3cccc([N+](=O)[O-])c3)cc12	.	4.5	.	-6	9	.	-5.0
O=C(/C=C/c1ccco1)NC(=S)Nc1nc(-c2ccc3ccccc3c2)cs1	-3	2.7	1.4	0	-8	28%	1.4
CN(Cc1ccc(-n2cccn2)cc1)C(=O)c1cnn2c1NC(c1ccco1)CC2C(F)(F)F (stereo not given)	-3	.	-0.1	.	-7	23%	0.7
CCN1C(=O)N[C@@H](CCc2ccccc2)[C@@H](C(=O)OC)[C@H]1C	-3	-0.1	4.4	2	0	.	5.1
O=C(CNC(=O)N1CC(=O)Nc2ccccc21)Nc1nccs1	.	2.2	0.0	-2	-2	.	1.1
SMILES	Calb FLC	LANA-H2B inh	RanGTP-Imp inh	ALR H2O2 inh	Beta2AR agonist	Vif TR-FRET	HNF4A DNA FP
COc1cccc(OC)c1C(=O)NCCN1CCN(C(=O)c2c(OC)cccc2OC)CC1	35	-3.9	2.4	.	-1	4%	-3.1
CC(=O)c1ccc(Nc2cc(C)nc3c(C)cccc23)cc1	8	2.1	?	-13	2	.	2.4
Cc1cc(NC(=O)CSc2nnc(-c3ccco3)n2CC2CCCO2)no1 (stereo not given)	-6	-7.1	-0.4	-4	7	5%	1.8
CCOC(=O)NC(=S)Nc1cccc(NC(=S)NC(=O)OCC)c1	14	-3.4	-3.5	-3	-11	1%	-4.7
Cc1ccc(-n2cccn2)c([C@@H]2C[C@H]3CN(C)C(=O)[C@]34CCCN24)c1	4	.	-2.1	.	7	19%	-1.0
COc1cc(S(=O)(=O)N(Cc2ccccn2)Cc2ccco2)ccc1-n1cnnn1	-6	-6.3	3.5	-9	-10	-3%	-5.6
COc1ccc(Cl)cc1C(=O)NN=C1CCCC1	1	6.1	7.1	0	4	.	3.7
Cc1ccc(S(=O)(=O)Nc2ccc3c(c2)nc(CCN2CCCC2)n3C)cc1	0	9.3	4.1	-5	1	-10%	1.4
O=[N+]([O-])c1ccc(N2CCN(C(=S)Nc3cccc(F)c3)CC2)cc1	-11	2.3	4.7	41	1	-3%	0.2
CC1(C)C2CC=C(/C=N/NC(=O)C3CC3)C1C2 (stereo not given)	4	-0.9	5.0	1	-18	-5%	4.2
O=C(NCc1ccncc1)C(=O)NCC(c1ccco1)N1CCN(c2ccccc2)CC1 (stereo not given)	1	-1.8	4.5	99*	5	-1%	-3.7
CC(NS(C)(=O)=O)C(c1cccs1)N1CCN(c2ccccc2)CC1 (stereo not given)	-4	2.9	2.0	99*	1	?	4.8
COc1cccc(-n2c(CCn3nc(C)c([N+](=O)[O-])c3C)n[nH]c2=S)c1	1	1.5	-4.2	85*	-3	16%	1.6
CCN1C(=O)[C@H]2[C@@H](c3ccc(-c4ccc5c(c4)OCO5)c(OC)c3)N[C@@](C)(C(=O)OC)[C@H]2C1=O	.	6.2	.	-5	-3	.	-3.1
Cc1cccc(CN2CCC(CNC(=O)CCNC(=O)Cn3ccc4ccccc4c3=O)CC2)c1	-5	-0.9	2.8	-2	-1	-1%	-0.9
C=CCc1c(C)nc2c(OC)cccc2c1Cl	6	-6.0	.	-3	-10	.	5.8
CCOC(=O)c1c(C)nn(-c2ncccc2NC(=O)CCC(=O)O)c1C	24	4.9	1.9	-2	0	.	5.6
Cc1cc(C(=O)CN2C(=O)C3CC=CCC3C2=O)c(C)n1-c1ccccc1 (stereo not given)	-1	0.8	-8.7	19	0	3%	-0.3
Cc1ccc(Cn2c(SCC(=O)NCC3CCCO3)nc3c2c(=O)n(C)c(=O)n3C)cc1 (stereo not given)	0	-1.3	1.0	-7	-4	-10%	-0.6
Cc1nn(Cc2ccc(Cl)cc2)c(C)c1N	13	5.1	-2.5	94*	28	26%	1.7
Cc1ccccc1CC(=O)NC1CCN(C)CC1	1	0.2	1.8	-3	-5	.	6.6
O=C(NNC(=O)c1cccs1)c1ccc(Cl)c(S(=O)(=O)N2CCCC2)c1	.	3.8	.	8	11	.	-1.5
CCS(=O)(=O)N1CCC(C(=O)NCc2cc(OC)ccc2OC)CC1	26	-4.0	10	-3	-1	0%	0.8
CCNC(=O)/C(=C\c1ccc2c(c1)OCO2)NC(=O)c1ccc(Br)cc1	9	2.7	1.6	6	12	0%	-2.5
CCCC(CCC)C(=O)Nc1c[nH]c(=O)[nH]c1=O	-3	-1.2	?	-9	7	-3%	2.9

2 compounds from above, reduced to Calb FLC:
molecule | Calb FLC
CCNC(=O)/C(=C\c1ccc2c(c1)OCO2)NC(=O)c1ccc(Br)cc1 | 9
CCCC(CCC)C(=O)Nc1c[nH]c(=O)[nH]c1=O | -3

(cont.)
SMILES	Calb FLC	LANA-H2B inh	RanGTP-Imp inh	ALR H2O2 inh	Beta2AR agonist	Vif TR-FRET	HNF4A DNA FP
COCc1c(C(=O)OCc2nc(N)nc(Nc3ccccc3C)n2)oc2ccccc12	2	2.6	-1.3	.	-7	23%	-0.8
COc1cccc(/C=N/Nc2ncnc(N)c2[N+](=O)[O-])c1OC	0	-5.3	-7.1	-27	0	6%	-3.6
O=C(Cn1nc(C(F)(F)F)c2c1CCCC2)Nc1ccc2c(c1)OCO2	8	4.6	-2.7	-5	-12	11%	0.9
COc1ccc(CNC(=O)CN2C(=O)NC3(CCCCCC3)C2=O)cc1OC	8	2.7	-4.3	.	-2	-4%	0.9
COc1cccc2c(=O)c3ccccc3oc12	1	-17&-0.8	1.7	-4	8	-190%	2.0
O=C(NCc1ccco1)c1cc(-c2cccc(Cl)c2)on1	17	-18	0.9	4	-3	37µM*	-4.7
COC(=O)CCc1c[nH]c2ccc([N+](=O)[O-])cc12	.	.	.	.	-1	-1%	1.6
Cc1ccc2nc(C)c3c(c2c1)N(c1ccccc1)CC3	-2	-2.3	1.1	11	-2	-1%	4.6
O=C(C(NS(=O)(=O)c1cccc2nsnc12)c1ccccc1)N1CCN(c2ccccc2)CC1 (stereo not given)	9	-5.7	1.4	4	0	-2%	0.0
CCC(CO)Oc1cc(NCc2ccncc2)c2ncn(C(C)C)c2c1 (stereo not given)	.	0.8	.	2	0	.	-2.9
CCOC(=O)Cc1csc(NC(=O)CCSc2ccccc2)n1	-23	0.4	-0.2	.	3	-11%	-1.0
CC(Oc1ccc(Cl)cc1Cl)C(=O)NCCCCc1ccccc1 (stereo not given)	-5	3.9	?	-28	-10	.	-0.4
CC1=CC(C)(C)N(C(=O)CSc2nnc(-c3ccccc3)o2)c2ccc(C)cc21	2	0.6	5.1	0	-12	-4%	-1.5
CCN1C[C@@H]2[C@@H]3C(=O)N(Cc4ccccc4)C(=O)[C@@H]3[C@](C)(C(=O)OC)N2C1=NC	.	.	.	.	-3	-9%	-2.0
COc1ccc(-c2ccc(SCC(=O)NCc3ccco3)nn2)cc1	-4	-0.6	0.7	1	12	7%	1.3
CCCc1cc(=O)[nH]c2nnc(SCC(=O)Nc3ccc4c(c3)OCCO4)n12	6	-6.7	1.6	-4	2	4%	0.4
CC1CCC(C(C)C)C(OC(=O)C[n+]2cc(-c3ccc(Cl)cc3)n3c2CCC3)C1 (stereo not given)	-3	1.9	6.1	-8	-14	-9%	3.3
S=c1[nH]nc(-c2ccco2)n1-c1ccc(Cl)cc1	1	-2.1	3.8	59	-8	.	-1.6
Cc1ccc2[nH]c3c(NCCCN4CCCC4=O)ncnc3c2c1	-2	3.2	2.3	.	3	?	1.1
O=C(NCc1ccccc1CN1CCCC1)c1ccc(Cl)c(S(=O)(=O)N2CCCC2)c1	.	.	.	.	6	4%	4.9
Cc1ccc(N2C(=O)N(CC(=O)Nc3cccc([N+](=O)[O-])c3C)C(=O)C2C)cc1 (stereo not given)	-4	-4.1	-0.1	-7	3	-6%	1.8
CC1=C(C(N)=O)C(c2ccc3c(c2)OCO3)n2nc(-c3cccc(C)c3)nc2N1 (stereo not given)	1	-4.3	1.6	-1	-11	-1%	-2.3
COCCNc1nc(SCC(=O)N2CCN(c3ccccc3OC)CC2)nc2ccccc12	32	-1.3	-4.7	.	1	17%	11
COc1ccc(-c2csc(Nc3cc(C)ccn3)n2)cc1C	1	-0.4	-1.4	-1	11	-3%	-2.2
CSc1nnc(CSc2cc(C)nc(N(C)C)n2)o1	-4	0.5	-0.3	1	-10	.	4.1
COC(=O)CCCCC1SCC(NC(=O)c2ccccc2)C1OC(C)=O (stereo not given)	-1	9.4	0.0	7	5	-6%	-1.2
CSc1ccccc1C(=O)NC1CCCCC1	-1	-0.1	2.8	-3	2	-5%	-1.6
C(=N\N1CCOCC1)/c1cn(-c2ccccc2)nc1-c1ccccc1	9	-0.4	3.2	5	-21	.	-2.9
COc1cccc(-c2nn3c(-c4cccc(C)c4)nnc3s2)c1	16	-1.0	-1.7	2	-9	-8%	2.4
